TRPML1 ag: human mucolipin-1 channel agonism | activation, % (no concentration beside the values) | 410,000 tested, 0.12% active | TRPML1-expressing cells, Ca2+ dye fluorescence, FDSS; host cell line not named in the record; reference of the full effect not given here | Q9GZU1 | AID 624414; in the data active = activation above about 50%; inconclusive = about 30% to 50%; inactive = below about 30%; note: 0% is about no effect; the text of the record puts the active cut at 80%
Target sequence (Q9GZU1 whole entry, looked up): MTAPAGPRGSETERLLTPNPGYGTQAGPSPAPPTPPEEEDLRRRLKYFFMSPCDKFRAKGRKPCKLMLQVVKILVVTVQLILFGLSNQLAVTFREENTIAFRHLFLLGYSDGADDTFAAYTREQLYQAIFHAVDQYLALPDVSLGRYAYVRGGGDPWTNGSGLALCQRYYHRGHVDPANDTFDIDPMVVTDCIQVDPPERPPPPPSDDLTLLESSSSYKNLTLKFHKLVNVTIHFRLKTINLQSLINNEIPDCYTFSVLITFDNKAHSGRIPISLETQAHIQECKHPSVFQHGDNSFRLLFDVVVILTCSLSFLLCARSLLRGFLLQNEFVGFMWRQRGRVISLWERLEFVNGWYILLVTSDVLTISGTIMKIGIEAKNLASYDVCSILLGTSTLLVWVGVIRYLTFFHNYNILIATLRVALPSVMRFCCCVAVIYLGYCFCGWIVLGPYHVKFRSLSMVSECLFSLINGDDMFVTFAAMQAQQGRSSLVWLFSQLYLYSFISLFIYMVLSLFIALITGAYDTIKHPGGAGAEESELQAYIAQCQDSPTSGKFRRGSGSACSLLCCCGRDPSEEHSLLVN
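Tet-induced TRPML1-DL cells, 1,500 per well, cultured overnight, were loaded with a no-wash Ca2+ dye for 45–90 min. Calcium fluorescence was recorded on the FDSS for 110 s after compound addition, before the EC80 agonist (4 uM 54-4) was added.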
TRPV1 potentiator: human TRPV1 potentiation; Q8NER1; TRPV1-expressing cells, Fluo-8 calcium influx, capsaicin EC20 potentiation; host cell line not named in the record; control for the full effect not named in the record; potentiation, % at 8.33 µM; 320,000 tested, 0.02% active; active means potentiation above 80%; inconclusive means 30% to 80%; inactive means below 30%; note: 0% is about no effect
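TRPV1-expressing cells were cultured overnight at 35.5C and loaded with Fluo-8 calcium dye for 40 to 90 min at room temperature. After a 10 s baseline, compound was added and calcium influx was read kinetically for 3 min (ex 480/em 520 nm).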
Sfp PPTase inh: Sfp phosphopantetheinyl transferase inhibition; Q9F4F7; Biochemical Sfp PPTase activity, qHTS; Potency, µM, inactives show max response, negative = inhibition, hits mostly inhibitors; 310,000 tested, 3.5% active; AID 1490; active = well fitted inhibition curve with a large enough effect; inconclusive = small, poorly fitted or top-dose-only effect, or another doubt; inactive = no such curve, though single readings can be large or run the other way;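 note: the enzyme is Sfp with the accession as filed and its product quenches rhodamine fluorescence; potency is the fitted concentration of half-maximal effect; 0% = enzyme reaction without inhibitor and -100% = no enzyme wells; top concentration of the series not given in the record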
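Compounds were incubated with enzyme (final 15 nM) for 15 min at room temperature before substrate addition started the reaction. Fluorescence at 525 nm excitation, 598 nm emission was recorded immediately and after 30 minutes.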
Menin-MLL FL inh: menin-MLL binding inhibition, fluorescein peptide; FP activity change, % at 61.4 µM; 290,000 tested, under 10 active; Fluorescence polarization, fluorescein-MLL peptide displacement from menin; inconclusive = falling polarisation curve, or a change in total fluorescence; inactive = total fluorescence flat and polarisation flat or rising; no compound was filed as active; the % refers to the polarisation; negative = inhibition;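 note: % of control where 0% means no effect; inhibitors lower the polarisation; unlabelled MLL peptide was the positive control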
TRPML1 blocker: inhibitors of human TRPML1 channel. Q9GZU1. TRPML1-inducible cells, Ca2+ dye fluorescence, FDSS; active compounds read low; inhibition of EC80 agonist-evoked calcium signal. activity change, negative = inhibition, % (no concentration beside the values). 390,000 tested, 0.02% active. AID 624415; in the data active means activity change below about -50%; inconclusive means about -30% to -50%; inactive means above about -30%;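 note: stimulus is agonist 54-4 at its EC80 concentration; % is set by controls: 0 for no effect and ±100 for the full control effect; compound concentration not given in the record; the text of the record puts the active cut at -80%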
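Tet-induced TRPML1-DL cells loaded with Ca8 no-wash calcium dye were read kinetically on FDSS. Compound addition was followed by EC80 agonist 54-4 (4 uM final); inhibition was read over 110 s.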
ClpP mod: qHTS Assay for Activators of ClpP | purified B. subtilis ClpP, FRET peptide cleavage, 20 min | AID 651965, 2013 | ATP-dependent Clp protease proteolytic subunit (Bacillus subtilis (strain 168)), P80244 | Potency, µM (highest dose often 57.5 µM), without a hit: at the top dose activity change, negative = active | 340,000 tested, 1.9% active; active = well fitted falling curve with a large enough effect; inconclusive = small, poorly fitted or top-dose-only effect; inactive = no such curve, though single readings can be large or run the other way; note: potency is the fitted concentration of half-maximal effect; the source files actives as falling curves though it sought activators and does not explain the sign; nearly all actives have a fitted effect of over 65% in size; many hits overshoot -100%
Target sequence (P80244 whole entry, looked up): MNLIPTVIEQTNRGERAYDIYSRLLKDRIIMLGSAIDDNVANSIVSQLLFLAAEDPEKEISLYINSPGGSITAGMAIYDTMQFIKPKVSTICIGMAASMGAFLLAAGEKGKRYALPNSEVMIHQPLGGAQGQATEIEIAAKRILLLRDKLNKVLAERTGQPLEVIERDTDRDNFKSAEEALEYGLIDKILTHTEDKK
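Buffer: 100 mM Tris/HCl pH8, 100 mM KCl, 0.05% low protease BSA, 2.5% glycerol, 0.01% Tween-20. ClpP 10 microg/mL final; 20 min RT; delta FRET normalized to ADEP and DMSO controls.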
PINK1 modulator: modulators of PINK1 expression; Potency, µM (doses to about 76.6 µM), for inactives: top-dose activation (PINK1 increase), actives largely listed as activators; AID 624263; 410,000 tested, 0.2% active; PINK1 immunofluorescence, high-content cytometry, 24 h; active = well fitted activation curve with a large enough effect; inconclusive = small, poorly fitted or top-dose-only effect; inactive = flat fitted curve, though single readings scatter; cell line not stated here;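 note: potency is the fitted concentration of half-maximal effect; % of control where 0% means no effect; nearly all actives have a fitted effect of over 65% in size; a mitochondrial uncoupler was the plate control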
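Stable cell line, 250 cells/well, 12 h attachment; compounds pinned at 5 concentrations, 24 h; CCCP control. Fixed with nuclear dye, primary antibodies 12 h at 10 degrees C, secondary plus cell stain; laser-scanning cytometer read.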
* hit, by the source's call; ? = inconclusive; . = no result given; & = joins results of further samples; [ ] = remark or other dose. Hits appear at their usual frequency; about 4.4% have a hit in one of these screens.

Molecule	TRPML1 ag	TRPV1 potentiator	Sfp PPTase inh	Menin-MLL FL inh	TRPML1 blocker	ClpP mod	PINK1 modulator
COc1cc(OC)c2c(-c3cccc(-c4ccc(OC(F)(F)F)cc4)c3)cc(=O)oc2c1	-0.4	.	10%	0.1	10	-4.6%	-1.1%
Cc1ccc(OCCN(C)C(=O)c2cc(COc3ccc(F)cc3F)on2)cc1	1.2	-9	5%	3.1	24	0.9%	?
CCOC(=O)c1c(NC(=O)/C(C#N)=C/c2ccc(OC)cc2)sc2c1CCC2	-0.4	.	.	.	6	-0.2%	3.4%
CC(=O)NC1C(c2nc3ccccc3s2)=C(c2ccccc2)C(=O)N1c1ccc(C)cc1 (configuration not stated)	1.3	-6	15%	1.5	0	0.3%	1.3%
CCOC(=O)C1C(=O)NC(C(=O)OCC)(C(=O)OCC)C1C(C)CC (configuration not stated)	-0.7	.	.	.	-7	.	4.2%
CC(C)CCn1c(=O)c2ccccc2n2c(CN3CCOCC3)nnc12	-0.1	0	-7%	-1.1	6	.	0.3%
COc1ccc(/C=C2\SC(=O)N(CC(=O)Nc3cccnc3)C2=O)cc1OC	1.0	-7	45µM*	15	-6	-1.9%	6.6%
NC(=O)NC(=O)CSc1nc(-c2ccccc2)c(-c2ccccc2)n1CC1CCCO1 (configuration not stated)	1.6	1	18%	4.1	0	-1.5%	-0.1%
Cc1cccc(C(=O)N/C(=C/c2ccco2)C(=O)N2CCCCCC2)c1	0.2	-17	50µM*	.	12	-1.5%	0.2%
CCn1c(SCC(=O)NCC2CCCO2)nnc1-c1ccccc1OC (configuration not stated)	-0.3	2	.	.	3	-0.1%	-0.7%
CCOC(=O)[C@]12CCC=C1N(Cc1ccccc1)C(=O)[C@H](CC(=O)NCc1ccc(OC)c(OC)c1)C2	-1.1	.	.	.	.	-0.3%	2.4%
O=C(O)Cn1cc(/C=c2/sc3nc4ccccc4n3c2=O)c2ccccc21	1.6	-4	-23%	?	-4	.	0.9%
O=C(CN1CCN(c2ccccc2O)CC1)Nc1ccc([N+](=O)[O-])cc1Br	0.5	-43	-2%	-3.5	-12	1.6%	5.2%
COc1ccccc1CNS(=O)(=O)c1c(C)[nH]c(=O)[nH]c1=O	-0.3	-5	15%	-1.0	-10	1.0%	.
COc1ccc2c(=O)c3ccccc3oc2c1	0.3&-1.2	-8	-3%	-6.2	32	-20%&4.1%	-0.9%
COc1ccccc1CCNC(=O)Cc1c(C)c2c(cc(C)c3c(C)c(C)oc32)oc1=O	-0.3	.	.	.	3	5.0%	1.0%
CSc1nc(SCC(=O)NCc2ccco2)c2c3c(sc2n1)CN(C)CC3	-0.6	.	.	.	16	-19%	0.2%
CCCN(CCC)C(=O)CCS(=O)(=O)c1cccc2nsnc12	-0.7	16	19%	-1.1	6	-6.4%	-1.7%
Cc1ccc(C(=O)Nc2ccc(-c3nc4ccccc4s3)c(O)c2)c(C)c1	-0.4	.	.	.	0	0.5%	1.9%
CCOc1ccc(C(=O)N(CN2CCCC2=O)c2cccc(Cl)c2)cc1	-0.7	-7	11%	-0.6	8	.	2.1%
CN(C)C(=O)c1ccc(NC(=O)CN2CCc3cc4c(cc3C2)OCCCO4)cc1	-0.7	1	16%	.	28	-5.8%	0.0%
O=C(c1nc2ncccn2n1)N1CCc2ccccc2C1	-0.5	7	0%	3.1	3	-9.1%	-0.6%
Cc1nnc(SCC(=O)Nc2ccccc2)n(N)c1=O	-0.9	15	-1%	6.1	-18	.	2.3%
O=C(Nc1ncccc1O)c1cccc(S(=O)(=O)N2CCN(c3ccc(F)cc3)CC2)c1	-1.1	0	.	.	5	0.9%	3.5%
CCOC(=O)CN1C(=O)N(c2ccc(C)c(C)c2)S(=O)(=O)c2ccccc21	1.2	.	.	.	-13	-2.5%	1.0%
COc1ccc(-c2nnc(SCCC(=O)O)n2-c2ccccc2)cc1OC	0.2	-1	27%	4.9	-7	-6.2%	1.2%[38.3 µM]
O=C(Nc1cccnc1)C1CC(=O)N(c2ccc(F)cc2)C1 (configuration not stated)	-0.1	5	1%	0.3	16	.	-1.3%
CC(=O)Nc1ccc(-c2ccnc3c2CC(C)(C(=O)Nc2cccc(Oc4ccccc4)c2)O3)cc1 (configuration not stated)	-0.2	.	.	.	.	4.5%	6.0%
CCCCn1c(=N)n(CC(=O)c2ccc([N+](=O)[O-])cc2)c2ccccc21	.	-22	56µM*	2.5	.	.	.
O=S(=O)(Cc1ccccc1)N1CCN(Cc2ccccc2)CC1	0.4	-11	19%	4.1	?	0.2%	?
O=C(COc1ccccc1Cl)NCCc1ccc2c(c1)OCCO2	0.3	-13	1%	-0.2	10	-0.7%	7.5%
Cn1c(SCCOc2ccccc2Cl)nnc1-c1cccs1	-0.1	-6	-12%	2.9	6	-13%	?
Cc1ccc(C(=O)N(Cc2nnc(-c3ccc(Cl)cc3)o2)C2CC2)o1	3.2	-10	.	.	-17	-7.6%	1.0%
CCOC(=O)N1CCN(CCC(=O)Nc2ccccc2OC)CC1	-0.5	-4	8%	2.1	-5	-0.7%	-0.2%
CCc1ccc2oc(-c3ccc(C)c(NC(=O)COc4ccc(Cl)cc4)c3)nc2c1	-0.2	.	.	.	.	4.0%	0.5%
Cc1ccc(C(=O)NCc2ccco2)cc1	0.9	-25	1%	2.1	31	-1.1%	1.7%
O=C(Nc1cc(Cl)ccc1N1CCOCC1)c1cccnc1Cl	0.2	-14	-28%	-5.6	19	-3.1%	-0.6%
Cc1ccc(S(=O)(=O)/N=C(/Nc2ccccc2C)c2ccccc2)cc1	0.3	.	.	.	-4	.	-3.7%
CCOC(=O)c1ccc2c(c1)C1C=CCC1C(C(=O)O)N2 (configuration not stated)	.	-4	?	-2.0	.	.	.
c1ccc(C(Cc2nc(-c3cccnc3)no2)c2ccccc2)cc1	-0.4	-21	-21%	4.4	-3	-5.6%	-2.7%
Cc1cc(C)n(-c2ccc(C(C)C)cc2)c(=O)c1C#N	-0.5	5	9%	-3.3	-1	.	-0.1%
CCC(=NCCN1CCNCC1)C1=C(O)CC(C)(C)CC1=O	0.1	5	-27%	2.8	3	0.6%	-0.6%[38.3 µM]
COc1ccc(/C(N)=N/OC(=O)c2ccc3c(c2)OCO3)cc1	0.2	3	-9%	2.3	23	-21%	9.3%
CN(Cc1ccccc1)C(=O)c1ccc(NC(=O)Cc2ccc(NC(=O)C3CCCN(C(=O)c4ccccc4)C3)cc2)cc1 (configuration not stated)	0.8	.	.	.	29	1.6%	4.7%
CCOc1ccc(CNC(=O)C2CCCN(S(=O)(=O)N3CCC(C)CC3)C2)cc1OC (configuration not stated)	-0.3	.	.	.	2	0.4%	0.2%
CC(C)CCNC(=O)c1cc(S(=O)(=O)N2CCC3(CC2)OCCO3)ccc1F	-0.9	.	.	.	0	-2.0%	-0.2%
CCCSc1nc2sc3c(c2c(=O)n1-c1ccccc1)CCC(C)C3 (configuration not stated)	0.1	.	.	.	-1	-12%	1.6%
Cc1ccc(NC(=S)NCC(C)C)cc1	0.8	-7	-10%	0.5	-8	-2.0%	2.1%
O=c1[nH]c(CN2CCN(Cc3ccccc3)CC2)nc2scc(-c3ccccc3)c12	0.2	-14	-6%	?	-4	.	10%
Cc1cccc(CNc2nc(-c3c(C)noc3C)nc3ccccc23)c1	.	.	-11%	0.8	.	.	9.3%

(next part)
Molecule	TRPML1 ag	TRPV1 potentiator	Sfp PPTase inh	Menin-MLL FL inh	TRPML1 blocker	ClpP mod	PINK1 modulator
Cc1noc(C)c1C(=O)N1CCC2(CCCN(c3ncccn3)C2)CC1	.	.	-7%	1.0	.	.	1.3%
CCOc1ccc(N2CC(C(=O)Nc3ccccc3C(=O)NC3CC3)CC2=O)cc1 (configuration not stated)	0.1	11	10%	-2.7	-3	.	0.5%
Cc1cccc(CCN(C(=O)c2snc(C(N)=O)c2N)C(C(=O)NCC2CCCO2)c2ccc(F)cc2)c1 (configuration not stated)	1.0	-3	-1%	-1.1	12	.	1.2%
CCOC(=O)Cn1nc(/C=C/c2ccc(C)cc2)ccc1=O	2.3	-11	-6%	2.7	30	32µM*	-2.8%
COC(=O)c1c(NC(=O)CN(c2ccc(C)c(C)c2)S(C)(=O)=O)sc2c1CCCC2	1.0	?	4%	7.2	-4	-7.9%	6.4%
CCOc1cc(C=O)ccc1OCCCN1C(=O)NC(C)(C)C1=O	-0.5	17	10%	-3.0	-3	-9.4%	47%[38.3 µM]
CC1(C)CC(=O)C(N=Nc2cc(S(=O)(=O)N3CCOCC3)ccc2Cl)=C(O)C1	0.5	-7	-2%	3.9	10	0.1%	1.5%
COc1ccc(Cl)cc1NS(=O)(=O)c1cccc(C(=O)NCCCN2CCOCC2)c1	-0.3	.	.	.	0	1.6%	1.2%
CC(OC(=O)CN1C(=O)c2ccccc2C1=O)C(=O)NC1CCCC1 (configuration not stated)	0.8	4	17%	.	-2	.	3.0%
Cn1nc(C(=O)Nc2ccc(S(=O)(=O)N3CCCCC3)cc2)c2ccccc2c1=O	1.4	-2	-2%	-1.2	21	.	2.0%

Source: PubChem BioAssay (National Center for Advancing Translational Sciences (NCATS))
